GIV Gai3 FP – inhibitors of GIV peptide binding to Galpha-i3, primary screen, biochemical, fluorescence polarization, FITC-GIV GBA peptide, rat Galphai3. Guanine nucleotide-binding protein G(i) subunit alpha-3 (Rattus norvegicus), P08753. 90 min; stronger effect = lower value; scaled: aluminum fluoride 0%, vehicle 100%. percent of control (FP), % (concentration not given with the values). 0.42% of 210,000 active. AID 1224905, 2016;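 active means replicate mean at 85% of control or lower, very high polarization wells dropped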;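 further: wells of about 15 µL received 100 nL stock; the first replicate is given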
Target sequence (P08753 whole entry, looked up): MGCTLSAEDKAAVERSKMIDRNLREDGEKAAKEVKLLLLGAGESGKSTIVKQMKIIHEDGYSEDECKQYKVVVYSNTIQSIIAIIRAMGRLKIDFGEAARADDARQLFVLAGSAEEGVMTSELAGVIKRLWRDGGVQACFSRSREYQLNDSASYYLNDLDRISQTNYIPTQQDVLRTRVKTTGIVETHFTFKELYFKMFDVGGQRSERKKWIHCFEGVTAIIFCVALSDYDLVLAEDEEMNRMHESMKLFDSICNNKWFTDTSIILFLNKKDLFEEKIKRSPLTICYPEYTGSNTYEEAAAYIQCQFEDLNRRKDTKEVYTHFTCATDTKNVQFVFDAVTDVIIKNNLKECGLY
Sa growth inh – S. aureus growth inhibition at 42 and 30 °C, primary screen, LtaS inhibitor project, RN4220, two temperatures | OD600, 20 h, 42 °C; stronger effect = lower value | relative growth, % (no concentration beside the values) | 0.53% of 170,000 active | AID 720641, 2013;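 active means growth at 42 °C up to 50% and 20 or more points under that at 30 °C, or under 10% at both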;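 further: 300 nL library stock went into each well; scaled to the means of positive and negative controls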
HCMV NEC inh – inhibitors of HCMV UL50-UL53 interaction, biochemical, HTRF | 0.15% of 190,000 active | normalized percent inhibition | inhibition, % (concentration not given with the values) | HCMV UL50-UL53 nuclear egress complex (human cytomegalovirus);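 active means both replicates at 50% or more, plus weaker picks with an unusually low signal ratio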;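 further: stock transfer was 100 nL into about 20 µL; 0% = negative control wells and 100% = wells with untagged competitor protein; inactives centre near -12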
Sa growth inh second temp – recorded beside Sa growth inh, whose call it bears; relative growth, %; measured here: growth at 30 °C;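 optical density after 20 h as mean of two plates; 100% = untreated growth and lower means inhibition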
Active calls of the source: *; . = no result given; & = joins results of further samples. An unsorted share of the library; 0.83% or so of the library scored in one or more.

nr	molecule	GIV Gai3 FP	Sa growth inh	Sa growth inh second temp	HCMV NEC inh
1	CC1=NC(C(F)(F)F)(C(F)(F)F)C2=C(CC(C)(C)CC2=O)N1CC1CCCO1 (stereo unspecified)	100	96	101	1
2	Cn1c(C(C#N)c2ncc(Cl)cc2Cl)nc2ccccc21 (stereo unspecified)	.	95	90	-24
3	O=C(COC(=O)Cn1cc(C(F)(F)F)ccc1=O)NCc1ccco1	.	81	98	-7
4	COc1ccc(Cl)cc1NC(=O)CSc1nnc2[nH]c(=O)cc(-c3ccccc3)n12	103	83	73	.
5	O=C(OCc1ccccc1)c1cccc(OC(F)F)c1	.	114	92	15
6	CC(=O)N1CCCc2cc(S(=O)(=O)NCc3ccc(OC(C)C)cc3)ccc21	99	104	82	.
7	COc1ccc(-n2ncc(C(=O)N3CCN(c4ncccn4)CC3)c2C2CCN(C(=O)OC(C)(C)C)CC2)cc1	110	90	89	.
8	CC1CC(=O)Nc2ccccc2N1C(=O)CSc1ccccn1 (stereo unspecified)	.	76	88	-22
9	O=C(CN1C(=O)COc2ccccc21)Nc1cccc2nsnc12	104	.	.	-14
10	Cc1oc(CC(C)C)cc1C(=O)Nc1cccc(C(=O)O)c1	94	90	93	-2
11	CC(=O)Nc1onc(C)c1-c1nc(-c2ccc(Cl)cc2Cl)cs1	103	106	89	5
12	CC(C)c1ccc(-c2noc(C3CCCN(C(=O)c4ccccc4)C3)n2)cc1 (stereo unspecified)	99	110	89	-2
13	COc1ccc(C=Nc2ccccc2Sc2ccccc2)cc1O	.	83	107	15
14	CN(C(=O)COc1cc(=O)n(C)c2ccccc12)c1ccc(Br)cc1	96	73	73	-24
15	CC(C)(C)C1CCc2onc(C(=O)O)c2C1 (stereo unspecified)	96	.	.	-10
16	O=C1Nc2ccccc2C(O)(C(=O)NC2CC2)N1c1ccccc1 (stereo unspecified)	100	92	85	.
17	CCOc1ccc(CCN2C(=O)C3C4C=CC(C4)C3C2=O)cc1OCC (stereo unspecified)	.	114	82	-6
18	O=C1COc2ccc(S(=O)(=O)N3CCN(C(=O)NCc4ccccc4)CC3)cc2N1	111	.	.	-10
19	COc1cccc(NC(=O)CCCSc2nc(-c3ccco3)cc(C(F)(F)F)n2)c1	103	91	68	-25
20	CCc1cccc(NC(=O)c2ccc3c(c2)c(C)c(C)n3Cc2ccc(F)cc2)c1	105	83	99	.
21	CC(=O)N1CCC(N(C(=O)Nc2ccccc2)C(C)C)CC1	108	122	87	.
22	CCOc1ccc(OCC)c(NC(=O)C2CCN(C(=O)c3cccn3-c3cccnc3)CC2)c1	106	.	.	-20
23	FC(F)(F)c1ccc(CSc2c[nH]c3ccccc23)cc1	101	54	69	.
24	COc1ccccc1CNC(=O)c1ccccn1	.	102	94	6
25	O=C(Nc1cc(F)ccc1F)c1ccc(S(=O)(=O)c2ccc(Br)cc2)nc1	101	.	.	-23
26	COc1ccc(-c2noc(-c3ccc(OCC(=O)N4CCOCC4)cc3)n2)cc1	108	.	.	-5
27	COc1ccccc1CCNC(=O)C(=O)NCC(c1ccco1)S(=O)(=O)c1ccc(C)cc1 (stereo unspecified)	94	125	86	.
28	COc1ccc(CCNC(=O)c2cc(Nc3cc(C)cc(C)c3)nc3ccccc23)cc1OC	101	105	105	3
29	Cc1c(-c2nc(-c3ccccn3)no2)oc2ccc(S(=O)(=O)N3CCSCC3)cc12	98	.	.	-10
30	CC1=C(C(=O)Nc2cccc(F)c2)C(c2cccs2)C2=C(CCCC2=O)N1 (stereo unspecified)	104	103	84	-2

Next section; it opens with the 5 that closed the last part.
nr	molecule	GIV Gai3 FP	Sa growth inh	Sa growth inh second temp	HCMV NEC inh
26	COc1ccc(-c2noc(-c3ccc(OCC(=O)N4CCOCC4)cc3)n2)cc1	108	.	.	-5
27	COc1ccccc1CCNC(=O)C(=O)NCC(c1ccco1)S(=O)(=O)c1ccc(C)cc1 (stereo unspecified)	94	125	86	.
28	COc1ccc(CCNC(=O)c2cc(Nc3cc(C)cc(C)c3)nc3ccccc23)cc1OC	101	105	105	3
29	Cc1c(-c2nc(-c3ccccn3)no2)oc2ccc(S(=O)(=O)N3CCSCC3)cc12	98	.	.	-10
30	CC1=C(C(=O)Nc2cccc(F)c2)C(c2cccs2)C2=C(CCCC2=O)N1 (stereo unspecified)	104	103	84	-2
31	Cc1ccc(N2CC(C(=O)Nc3cccc(-c4noc(C5CCC5)n4)c3)CC2=O)cc1C (stereo unspecified)	102	.	.	-3
32	O=C(CSCc1cnn(-c2ccccc2)c1-n1cccc1)N1CCN(c2ccccn2)CC1	108&104	119	60	0&-5
33	Cc1c(CCNC(=O)c2ccc(Br)o2)sc2nc(-c3ccc(Cl)cc3)nn12	99	139	88	.
34	CC[n+]1c(/C=C2\C=C(C)CC(C)(C)C2)oc2ccccc21	103	59	39	.
35	Cc1[nH]c2ccc(C(=O)OCC(=O)N3CCCC3=O)cc2c1C	.	117	99	-6
36	COc1cc(NC(=O)c2cnc(N(C)C)nc2C)cc(OC)c1	104	.	.	-23
37	Fc1ccccc1CNCCCn1ccnc1	100	124	86	-23
38	CN(C(=O)CSc1cc(=O)n(C)c2ccccc12)C1CCCCC1	103	87	84	.
39	CC(C)OC1=NS(=O)(=O)c2ccccc21	103&99	104	91	-14&-30
40	Cc1ccc(C(=O)Nc2cccc(-c3cn4cccnc4n3)c2)cc1	102	74	62	-16
41	CC(=O)N1CCc2cc(S(=O)(=O)NC(Cc3ccccc3)C(=O)Nc3cccc(C)c3)ccc21 (stereo unspecified)	108	89	93	-4
42	COc1ccc(C(c2nnnn2C(C)(C)C)N2CCN(c3ccccc3)CC2)cc1 (stereo unspecified)	102	104	82	-19
43	c1coc(C2=NCCN2)c1	97	87	87	-24
44	CCOc1cc(/C=C2\N=C(c3ccc(Cl)cc3)OC2=O)cc(Br)c1OC(C)=O	105	.	.	-6
45	CC(=O)Nc1ccc(/C=C2\CCc3ccccc3C2=O)cc1	96	106	73	.
46	O=C(O)/C=C/c1ccc(OC(F)F)cc1	101	103	91	-4
47	CCc1nn(Cc2c(C)cc(C)cc2C)c(=O)c2cc3cc(C)ccc3n12	106	109	84	-24
48	CCOc1ccc(NC(=O)CSc2nc3ccsc3c(=O)n2CC)cc1	99	92	89	.
49	O=C(NC12CC3CC(CC(C3)C1)C2)c1ccccc1O	101	119	95	0
50	CCOC(=O)C1=C(CS(=O)(=O)c2ccc(OC)c(Cl)c2)NC(=O)NC1c1cccc(OC)c1 (stereo unspecified)	102	96	76	3
51	CCn1c(=O)c2sccc2n2c(CCC(=O)Nc3cc(C)cc(C)c3)nnc12	106	99	91	-123
52	CC(N)C(=O)Nc1ccccc1-c1ccccc1 (stereo unspecified)	105	105	93	-5
53	CC1(C)CC(=O)C2=C(C1)OC(N)=C(C#N)C21C(=O)N(CCc2ccccc2)c2ccccc21 (stereo unspecified)	.	112	97	0
54	CC(C)c1ccc(S(=O)(=O)N2CCC(c3nc(-c4ccc(Br)cc4)no3)CC2)cc1	103	.	.	-17
55	CC(NCC(O)Cn1nnnc1-c1ccccc1)c1ccccc1 (stereo unspecified)	105	100	90	.
56	COc1cccc(OCC(=O)Nc2cccc(Cl)c2)c1	.	106	95	-18
57	O=C(Nc1cccc(C(F)(F)F)c1)N1CCC(CN2CCCCCC2)CC1	102	119	93	.
58	CCOc1ccccc1CNC(=O)c1ccc2c(c1)nc1n2CCCCC1	107	111	91	.
59	O=C1CC(c2ccccc2Cl)Cc2nc(NCC3CCCO3)ncc21 (stereo unspecified)	101	95	103	12
60	O=C(CSc1nc2ccccc2nc1SCC(=O)N1CCCCC1)N1CCCCC1	.	83	89	-30

nr	molecule	GIV Gai3 FP	Sa growth inh	Sa growth inh second temp	HCMV NEC inh
61	CC(=O)c1cccc(NC(=O)Cn2cnc3c2c(=O)n(C)c(=O)n3C)c1	105	97	93	-12
62	CC1Cc2ccccc2N1S(=O)(=O)c1ccc2nc(-c3ccccc3)[nH]c2c1 (stereo unspecified)	104	97	77	.
63	CCN1CCN(C(=O)Cn2ncc3c4ccccc4n(Cc4ccccc4)c3c2=O)CC1	103	112	87	-16
64	Cn1c(=O)c2ccc(C(=O)NC3CCCCC3)cc2n2c(=O)n(CC(=O)NC3CCCC3)nc12	104	.	.	-3
65	Clc1ccccc1CSc1nc(NCCc2ccccc2)c2ccccc2n1	100	82	90	.
66	O=c1cc(C(F)(F)F)nc(SCc2ccccn2)[nH]1	103	105	93	-20
67	CC(C)n1cnc(S(=O)(=O)N2CCC(C(=O)N3CCc4ccccc43)CC2)c1	103	.	.	-24
68	Cn1c(-c2cc(Br)cs2)nc(=O)c2cc(Cl)ccc21	107	104	87	-12
69	CN1CCN(Cc2cn[nH]c2-c2ccc(F)cc2)CC1	104	86	85	-16
70	Cc1ccc(O)c(C(=O)CC(=O)c2cccs2)c1	.	6.4*	1.9*	-5
71	O=C(NCC1CC1)C1C2C3C4CC5C3C5C4C12 (stereo unspecified)	102	95	107	2
72	O=C(Nc1cc(Cl)ccc1Cl)c1cc(S(=O)(=O)NC2CCCC2)ccc1F	102	120	81	.
73	Cc1ccc(N2C(=O)C(N3C(=O)CCC3=O)C2c2ccc(F)cc2)cc1 (stereo unspecified)	.	117	77	-32
74	CCOC(=O)Oc1cc(N)c(Cl)cc1Cl	99	.	.	-14
75	COc1ccccc1N1CCN(C(=O)CC2SC(N)=NC2=O)CC1 (stereo unspecified)	.	108	96	12
76	O=C(COC(=O)c1cc2c(s1)CCCCC2)c1cccs1	.	100	94	-5
77	CCOc1ccc(NC(=O)c2nn(C)c3c2COc2ccccc2-3)cc1	97	86	92	-10
78	Cc1ccc(C2=NN(CC(=O)NCCc3ccccc3)C(=O)CC2)cc1	100	105	95	.
79	Cc1ccccc1-c1nc(CS(=O)CC(=O)NC(C)C)c(C)o1 (stereo unspecified)	102	120	82	.
80	CC1CCN(c2ncnc3ccc(Br)cc23)CC1	103	86	82	5
81	Cc1cc(NN)nc(SCC(=O)NN)n1	.	84	94	-6
82	CCc1ccc(C2N3CC4(C)CN2CC(C)(C3)C4)cc1 (stereo unspecified)	104	92	92	-40
83	Cc1ccc(C(C)NC(=O)c2c(-c3ccccc3Cl)noc2C)c(C)c1 (stereo unspecified)	98	95	68	-20
84	O=C(c1cnn2c(C(F)F)cc(C3CC3)nc12)N1CCCC1c1ccc(Cl)cc1 (stereo unspecified)	107	.	.	-44
85	COc1ccc(C2c3c(oc4ccccc4c3=O)C(=O)N2c2nc(C)c(C)s2)cc1 (stereo unspecified)	105	78	90	-2
86	Cc1sc(/N=C/c2ccc(Cl)c(Cl)c2)c(C#N)c1C	.	82	85	-10
87	CC(C)c1ccc(C2Oc3ccc(Br)cc3C3CC(c4ccccc4)=NN32)cc1 (stereo unspecified)	102	.	.	-3
88	Nc1n[nH]c2nc(C(F)(F)F)cc(=O)n12	107	100	95	-7
89	COc1cccc(N/C(N)=N/c2nc(CSc3ccccn3)cc(=O)[nH]2)c1	103	87	86	-30
90	COc1ccccc1CNc1nc2c(S(=O)(=O)c3ccccc3)nnn2c2ccc(Cl)cc12	120	108	85	-9

Values by screen from the list:
GIV Gai3 FP for entries 11 to 22: 103, 99, ., 96, 96, 100, ., 111, 103, 105, 108, 106
HCMV NEC inh for entries 11 to 22: 5, -2, 15, -24, -10, ., -6, -10, -25, ., ., -20

More records.
nr	molecule	GIV Gai3 FP	Sa growth inh	Sa growth inh second temp	HCMV NEC inh
91	COc1ccc(S(N)(=O)=O)cc1C(=O)OCc1cc(=O)oc2cc(NC(C)=O)ccc12	.	82	88	-13
92	OC(c1ccccc1)C(CN1CCCCC1)CN1CCCCC1 (stereo unspecified)	102	101	83	-13
93	CCCCOc1ccc(CN2C(=O)C(=O)c3cc(Br)cc(C)c32)cc1OC	107	109	82	-14
94	COc1ccc2c(c1)c(/C=C/c1nc3ccccc3c(=O)n1-c1ccccc1)c(C)n2C	107	.	.	-3
95	CCCNC(=O)C1CCC(Cn2c(=O)c3sccc3n(CC(=O)N3CCCC3)c2=O)CC1 (stereo unspecified)	101	67	93	.
96	CC1CN(/C(N)=N/S(=O)(=O)c2cc(C(F)(F)F)cc(C(F)(F)F)c2)CC(C)O1 (stereo unspecified)	106	95	93	4
97	Cc1cccc(CSc2nnc3n(C)c(=O)c4sccc4n23)c1	101	.	.	-40
98	CCn1c2ccccc2c2cc(CN3CCN(Cc4ccc(Br)cc4)CC3)ccc21	106	106	86	-33
99	CCOC(=O)c1c(-c2ccccc2)csc1NC(=O)c1cc(-c2cccc(OC)c2)on1	108	102	90	-8
100	O=C(CCSc1ccccc1)Nc1nccs1	107	119	96	-8
101	Cc1ccc(S(=O)(=O)Nc2nc(C)cc(-n3nc(C)cc3C)n2)cc1	98	.	.	-19
102	O=C(CCNC(=O)c1ccccc1Cl)Nc1cc(Cl)ccc1N1CCOCC1	.	98	94	6
103	O=S(=O)(NCCCc1nc2ccccc2[nH]1)c1ccccc1	102	88	88	-33
104	COC(=O)c1c(SCc2ccc(C#N)cc2)nc(=O)[nH]c1C	.	99	79	-23
105	Cc1cc(C(=O)N(C/C=C/c2ccccc2)c2ccc3c(c2)OCCO3)no1	.	91	95	12
